NPYLR7 agonist – agonists of mosquito NPYLR7 receptor, primary screen, cell-based, Aedes aegypti, calcium fluorescence, mosquito biting behavior. HEK293T NPYLR7/Galpha15, GCaMP6s calcium fluorescence. activation, % at 10 µM. 0.15% of 270,000 active. AID 1259423, 2018; in the data active = activation above about 40%;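 also: 0% = vehicle and 100% = reference agonist at the receptor; some compounds past the cut are filed as inactive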
NPYLR7 agonist max-min – second read-out of NPYLR7 agonist, no call of its own (marks repeat the call); activation, %; measured here: Max-Min RFU normalised activation; some inactives read as strong as hits;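 span of the calcium signal over five minutes; 0% = vehicle and 100% = native peptide agonist; compound fluorescence can raise it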
Numbers without * were called inactive; & = joins results of further samples. The list is partial (hit frequency here may not be typical).

SMILES | NPYLR7 agonist | NPYLR7 agonist max-min
COc1cccc(OC)c1OCCOc1ccc([N+](=O)[O-])cc1 | 22 | 8
O=C(Nc1ccccc1N1CCCC1)c1n[nH]c(=O)c2ccccc12 | 4 | 4
CC(=O)c1c(C)nn(CC(O)COc2ccc3ccccc3c2)c1C (stereo not drawn) | 10 | 7
O=C(O)c1nc2cc(Cl)c(Cl)cc2[nH]c1=O | -4 | -7
CCN(CC)CCn1ccnc1-c1cc2ccc(F)cc2[nH]c1=O | -8 | -12
CC(C)n1cc2cc(NC(=O)c3ccn(C)c(=O)c3)ccc2n1 | 4 | 1
COc1ccc(Cl)cc1C1=N/C(=C\c2cccnc2)C(=O)O1 | -1 | -1
COCCNCc1nccn1Cc1ccccc1Cl | 5 | 7
Cn1c(=O)c2c(nc3n2CC(c2ccc(F)cc2)=NN3CCCc2ccccc2)n(C)c1=O | 8 | 12
COc1cccc(CO[C@]2(C(=O)NCC3CCCO3)CC(OCc3cccc(Cl)c3)[C@H](O)[C@H](O)C2)c1 (stereo partly drawn) | 16 | -1
Brc1ccc(C2CC(c3cccc(Br)c3)=Nc3nnnn32)cc1 (stereo not drawn) | 22 | 15
Clc1cc(Cl)c(OCc2cn3cccnc3n2)c(Cl)c1 | 5&4 | 5&-1
COCCN(CC(=O)N(CCc1c[nH]c2ccccc12)Cc1ccc(C(F)(F)F)cc1)C(=O)c1ccc(Br)cc1 | -2 | 0
O=C(c1scc2c1CCCC2)N1CCCC(CO)(Cc2cccc(Cl)c2)C1 (stereo not drawn) | 2&-1 | -2&0
CCOC(=O)c1c(NC(=O)c2c(C)noc2C)c(-c2ccc(OC)cc2)cn1Cc1ccccc1 | 2 | 0
C=C(C)Cn1c(=O)c2c(nc3n(CCC)c(C)c(C)n23)n(C)c1=O | -4 | -3
O=C(Nc1ccccc1Br)N1CC(=O)N2CCc3c(F)cccc3C2C1 (stereo not drawn) | 13 | 0
O=c1[nH]c(CN2CCN(Cc3ccccn3)CC2)nc2ccsc12 | -8 | -11
C=CCn1c(=NC(=O)c2nc3ccccc3s2)sc2cccc(OC)c21 | 3 | 1
Fc1cccc(N2CC3ON=C(c4c(F)cccc4Cl)C3C2)c1 (stereo not drawn) | 7 | 4
COc1ccc(N2CC(CNC(=O)c3cccs3)OC2=O)cc1 (stereo not drawn) | 4 | 3
CNC(=S)N/N=C(\C)c1ccc([N+](=O)[O-])cc1 | 5 | 4
O=c1c2cnc3nc(-c4ccccc4)nn3c2ccn1Cc1ccccn1 | 2 | 2
CCCCCC(=O)Nc1c(-c2ccc(C)cc2)nc2cc(C)ccn12 | -5 | 0
COc1ccccc1C(=O)NC(C)c1nnc(SCc2ccccc2C)n1-c1ccc(Cl)cc1Cl (stereo not drawn) | -4 | 3
O=C(O)c1ccc(NCN2C(=O)c3ccccc3C2=O)cc1 | -9 | -11
COCCN(CCC(=O)N1CCC(Cc2ccccc2)CC1)c1nc(Cc2cccc(OC)c2)ns1 | -5 | 0
CN1CCC=C(c2noc(CN(C)C(=O)c3ccnc(Cl)c3)n2)C1 | 5 | 0
Cc1cccc(C(=O)N2C(C(=O)N3CCN(C)CC3)COC23CCCCC3)c1 (stereo not drawn) | -9 | 0
COc1cc2nc(-c3ccc(OC)c([N+](=O)[O-])c3)oc(=O)c2cc1OC | 3 | -1
C=C(C)Cn1c(=O)c2c(nc3n2CC(C)=NN3CC(N)=O)n(C)c1=O | -5 | -7
CC(C)C[C@@H](N)C(=O)NCc1cn2ccccc2n1 | 1 | -2
CC(C)(C)C(=O)COC(=O)c1nn(-c2ccccc2)c(=O)c2ccccc12 | -5 | -6
CC(=O)N1CCC(Oc2ccc(Cl)cc2C(=O)N2CCC[C@H]2CO)CC1 | 3 | 1
O=C(NC1CCN(c2ccccc2C(=O)NC2CCCc3ccccc32)CC1)c1ccc(C(F)(F)F)cc1 (stereo not drawn) | 0 | 5
COC(=O)c1ccc(C(=O)Nc2nc3c(s2)CCCC3)cc1 | 16 | 13
CC(C)N1CC(=O)N(c2ccc(F)c(Cl)c2)C1=S | 11 | 4
COCCNS(=O)(=O)c1c(C)c(C)c(C)c(C)c1C | 11 | 10
Cc1nc(-c2ccc(NC(=O)Nc3c(C)nn(C(C)C)c3C)cc2)cc(=O)[nH]1 | 5 | 2
Cc1nc(NC(=O)CCn2c(-c3cccs3)n[nH]c2=S)sc1C | 14 | 7
C=CCCOC(=O)N1C[C@H](C(N)=O)[C@H]2c3ccccc3N(CCOC)C(=O)[C@]21C | 3 | 10
COCCCNC(=O)CN1C(=O)CSC(c2ccc(OC)c(OC)c2)c2c(-c3ccccc3)nn(-c3cccc(C)c3)c21 (stereo not drawn) | -5 | 1
CC1(C)N=C(N)NC(Nc2cccc(Br)c2)=N1 | 23 | 17
CCN(CC(=O)NC(=O)NCc1ccccc1)Cc1ccc(OC)c(F)c1 | 0 | -3
Cc1ccc(CCNC(=O)c2cc(CN3CCOCC3)on2)s1 | -3 | -4
COc1cccc(-c2nsc(NC(=O)CC(F)(F)F)n2)c1 | 10 | 5
CCC(=O)Nc1cc(C)nn1-c1nc(-c2ccccc2)cs1 | -9 | -15
Cc1ccccc1-n1nnnc1C(c1ccccc1)N(C)C(=O)CCC1(C)CCC(=O)N1 (stereo not drawn) | 18 | 5
Cc1cc(OCC2CN(C(=O)c3ccccc3C)CCO2)ccc1Cl (stereo not drawn) | 11 | 4
C=CCn1c(=NC(=O)c2ccc(OC)cc2OC)sc2cccc(OC)c21 | 3 | 2

The list goes on.
SMILES | NPYLR7 agonist | NPYLR7 agonist max-min
Cc1ccc(S(=O)(=O)n2ccn(C(=O)C3CCCC3)c2=O)cc1 | 9 | 3
COC(=O)C1CCN(C(=O)CCc2csc(NC(=O)c3ccc[nH]c3=O)n2)CC1 | -10 | -18
CC(=O)OC(C)(C)C(=O)Nc1ccc(-c2cccc(-c3ccc4c(c3)NC(=O)CO4)n2)cc1 | -7 | -9
CC(/C=C1\N=C(c2ccc(Cl)cc2)OC1=O)=C\c1ccc2c(c1)OCO2 | 8 | 11
COCCN(CCOC)C(=O)c1ccc(SC(F)(F)F)cc1 | -10 | -16
CC(C)CCn1c(SCC#N)nc2nccnc2c1=O | 3 | 2
Cc1ccccc1NS(=O)(=O)c1ccc(C(=O)NCC(C)(C)N2CCCCC2)cc1 | 7 | 3
O=C(Cc1csc(-c2cccs2)n1)Nc1ccc2c(c1)CCC2 | 1 | 0
COc1ccc(NC(=O)C2CCCN2S(=O)(=O)c2cccs2)c([N+](=O)[O-])c1 (stereo not drawn) | 2 | 1
CC(C)(C)NC(=O)CSc1nnnn1C(C)(C)C | -1 | -6
CC1(C(=O)NCCCc2ccco2)CCCCO1 (stereo not drawn) | 1 | -4
C=CCC1(/C=C/C)CCCCN1 (stereo not drawn) | -4 | -8
COc1cc2c(cc1-c1nccn1C(C)Cc1cnccn1)OCCCO2 (stereo not drawn) | -1 | -2
CC(=O)NCc1ccc(C(=O)N2CCCc3c(F)ccc(C)c32)cc1 | 11 | 5
CCN(CC(=O)NC(C)(C)C)CC(=O)N1CCN(S(=O)(=O)c2ccc(F)c(Cl)c2)CC1 | 10 | 6
CCn1ccc(C(=O)N(Cc2ccccn2)c2nc3c(C)c(Cl)ccc3s2)n1 | -1 | -3
CN(Cc1nnsc1Cl)c1ccc(C(C)(C)C)cc1 | 11 | 9
COc1ccccc1Oc1ncccc1CNC(=O)Cc1ccccc1O | 8 | 4
CCN1CCCC1CNC(=O)c1cc2c(s1)CS(=O)(=O)C2 (stereo not drawn) | 7 | 8
Cc1ccc(OCC(=O)N2CCOC(COCc3c(Cl)cccc3Cl)C2)cc1 (stereo not drawn) | 5 | 2
O=C(COc1ccc(C2CC(c3ccccc3)=NN2C(=O)c2cccs2)cc1)N1CCCCC1 (stereo not drawn) | -3 | -6
CN(Cc1cccc(C#N)c1)Cc1c(O)ccc2oc3c(c12)CCCC3 | -1 | -4
CCOC(=O)[C@H]1[C@@H](O)C(=O)N(C(C)C)C12CCN(C(=O)c1cccs1)CC2 | 5 | 15
Cc1noc(C)c1C(=O)N1CCC1(C)C(=O)NS(=O)(=O)c1ccccc1C(F)(F)F (stereo not drawn) | -2 | -2
Cc1ccc(-c2csc(-n3[nH]c(C)c(N=Nc4nc5ccccc5s4)c3=O)n2)cc1 | 13 | 13
COc1ccc(-c2cc3c(n(C)c2=O)CCN(C(=O)c2ccc(C(C)=O)s2)C3)c2ccc(C)nc12 | 16 | 8
CCc1cccc(NC(=O)N(CCOC)CC(=O)N(Cc2ccc(F)cc2)Cc2sccc2C)c1 | 2 | 4
Cc1ccc2ncc(C(=O)NCCc3ccc(S(N)(=O)=O)cc3)c(=O)n2c1 | 6 | 4
O=C(NCC1Cc2cc(F)ccc2O1)c1ccco1 (stereo not drawn) | -5 | 8
COC(=O)CC1C(=O)NCCN1S(=O)(=O)c1c(C)cc(C)cc1C (stereo not drawn) | -8 | 15
Cc1cnc2c(C(=O)N3CCCCC3c3cccnc3)cnn2c1 (stereo not drawn) | 4 | 1
COc1cccc(F)c1-c1nc2c(C)cccc2cc1CO | 6 | 6
Cc1ccncc1NC(=O)c1ccc(Br)cc1F | 3 | -1
CC(C)c1nnc(-c2cc3ccccc3n2CC(=O)NCc2ccccc2)o1 | -1 | -1
Cc1ccc2c(Cl)cc(Cl)c(OCC(=O)OCC(=O)NC3CCCc4ccccc43)c2n1 (stereo not drawn) | -2 | -11
COc1ccc(-n2c(SCC(=O)Nc3nccs3)nc3c([nH]c4ccccc43)c2=O)cc1 | 2 | 36
CCCCCn1c(=NC(C)=O)c(C(=O)OCC)cc2c(=O)n3cccc(C)c3nc21 | 0 | -2
O=C(N=Nc1c(O)[nH]c2ccc(Br)cc12)c1ccncc1 | -1&-5 | -7&-8
O=c1c2c3c(sc2ncn1C1Cc2ccccc2C1)CC(NCc1cc(F)c(F)c(F)c1)CC3 (stereo not drawn) | 1 | 0
CCc1c(C)nn(CCNC(=O)C2CCCN(Cc3ccco3)C2)c1C (stereo not drawn) | 2 | 4
COCCn1cc(NC(=O)NCCC2=CCCCC2)c2ccccc21 | 17 | 8
CCCN(CC1CC1)C(=O)CN1C(=O)NC(C)(c2ccc3ccccc3c2)C1=O (stereo not drawn) | 4 | 3
CCOC(=O)C1(Cc2ccccc2)CCCN(Cc2ccccn2)C1 (stereo not drawn) | -13 | -16
COc1ccc(C)cc1S(=O)(=O)NCCNc1ccc(Nc2cccc(C)n2)nn1 | 9 | 8
O=C1Nc2ccc(-c3ccc(F)cc3F)cc2C(=O)N2CC[C@H](NC(=O)N3CCOCC3)[C@@H]12 | -12 | -16
CC(C)Cn1c(CN(C)Cc2ccc(F)cc2)cnc1S(C)(=O)=O | 3 | -2
COc1ccc(OCC2CN(CCc3ccccc3)S(=O)(=O)c3cccnc3O2)cc1 (stereo not drawn) | 17 | 26
Cc1nnc(SCc2ccc(Cl)s2)n1CC(N)=O | 11 | 6
NC(=O)c1c(F)cccc1-c1cccc2cnccc12 | -1 | -1
Cc1cnc(CNS(=O)(=O)NCc2ccccc2)cn1 | 11 | 9

Quoted from the results shown, 15 compounds:
SMILES | NPYLR7 agonist | NPYLR7 agonist max-min
COc1cccc(OC)c1OCCOc1ccc([N+](=O)[O-])cc1 | 22 | 8
O=C(Nc1ccccc1N1CCCC1)c1n[nH]c(=O)c2ccccc12 | 4 | 4
CC(=O)c1c(C)nn(CC(O)COc2ccc3ccccc3c2)c1C (stereo not drawn) | 10 | 7
O=C(O)c1nc2cc(Cl)c(Cl)cc2[nH]c1=O | -4 | -7
CCN(CC)CCn1ccnc1-c1cc2ccc(F)cc2[nH]c1=O | -8 | -12
CC(C)n1cc2cc(NC(=O)c3ccn(C)c(=O)c3)ccc2n1 | 4 | 1
COc1ccc(Cl)cc1C1=N/C(=C\c2cccnc2)C(=O)O1 | -1 | -1
COCCNCc1nccn1Cc1ccccc1Cl | 5 | 7
Cn1c(=O)c2c(nc3n2CC(c2ccc(F)cc2)=NN3CCCc2ccccc2)n(C)c1=O | 8 | 12
COc1cccc(CO[C@]2(C(=O)NCC3CCCO3)CC(OCc3cccc(Cl)c3)[C@H](O)[C@H](O)C2)c1 (stereo partly drawn) | 16 | -1
Brc1ccc(C2CC(c3cccc(Br)c3)=Nc3nnnn32)cc1 (stereo not drawn) | 22 | 15
Clc1cc(Cl)c(OCc2cn3cccnc3n2)c(Cl)c1 | 5&4 | 5&-1
COCCN(CC(=O)N(CCc1c[nH]c2ccccc12)Cc1ccc(C(F)(F)F)cc1)C(=O)c1ccc(Br)cc1 | -2 | 0
O=C(c1scc2c1CCCC2)N1CCCC(CO)(Cc2cccc(Cl)c2)C1 (stereo not drawn) | 2&-1 | -2&0
CCOC(=O)c1c(NC(=O)c2c(C)noc2C)c(-c2ccc(OC)cc2)cn1Cc1ccccc1 | 2 | 0

Look-ups from the entries so far.
`CCOC(=O)C1(Cc2ccccc2)CCCN(Cc2ccccn2)C1` (stereo not drawn) in NPYLR7 agonist: -13
`COCCn1cc(NC(=O)NCCC2=CCCCC2)c2ccccc21` in NPYLR7 agonist: 17

The list continues:
SMILES | NPYLR7 agonist | NPYLR7 agonist max-min
CN(C(=O)CN1C(=O)NC2(CCCc3sccc32)C1=O)C1CCS(=O)(=O)C1 (stereo not drawn) | 8 | 8
CC1CCN(S(=O)(=O)c2ccc(NCCCN3CCCCC3)c([N+](=O)[O-])c2)CC1 | 5 | 0
Cc1cccc(CSC(C)C(=O)NCCc2ccccc2)c1 (stereo not drawn) | -7 | 13
CCCCCCn1c(-c2ccc(OC)cc2)csc1=Nc1cccc(C(C)=O)c1 | -3 | -9
CCOC(=O)Cc1c(C)nc2c(-c3ccccc3)c(C)[nH]n2c1=O | -3 | -4
Cc1cc(C)nc(NS(=O)(=O)c2ccc(NC(N)=O)cc2)n1 | 1 | 0
Nc1ccc2oc(-c3ccccc3)nc2c1 | 4 | 3
O=C1NC(=S)N/C1=C/C=C/c1ccccc1[N+](=O)[O-] | 4 | 14
N#Cc1c[nH]c(C(=O)N2CCCC2C(=O)NCc2ccco2)c1 (stereo not drawn) | 4 | 2
Cn1cnc(S(=O)(=O)Nc2ccc(Cl)cc2)c1 | 2 | 0
CC(C)c1ncc(-c2cc(C(=O)N(C)C(C)C)c3ccccc3n2)cn1 | 6 | 5
c1ccc(Cn2nnc3c(SCc4cccnc4)ncnc32)cc1 | 13 | 19

Screens (PubChem)
